Assay outcomes deposited in PubChem BioAssay by National Center for Advancing Translational Sciences (NCATS).
VACV Venus inh = qHTS for Stage-Specific Inhibitors of Vaccinia Orthopoxvirus: Venus Reporter Primary qHTS | Potency, µM (series often up to 36.5 µM), for the others: top-dose activity change, negative = inhibition, actives largely listed as inhibitors | 330,000 compounds, 0.46% hits | Vaccinia virus Venus reporter expression, fluorescence; active means well fitted inhibition curve with a large enough effect; inconclusive means small, poorly fitted or top-dose-only effect; inactive means no such curve, though single readings can be large or run the other way; tested in A549 cells; also: nearly all actives have a fitted effect of over 30% in size; inactives centre near -10
VACV mCherry inh = qHTS for Stage-Specific Inhibitors of Vaccinia Orthopoxvirus: mCherry Reporter Primary qHTS; Vaccinia virus mCherry reporter infection, fluorescence; about a quarter of the inactives have no number; Potency, µM (highest dose often 36.5 µM), inactives show top-dose activity change, negative = inhibition, usual class: inhibitors; 310,000 compounds, 0.63% hits; AID 720579, 2013; active = well fitted inhibition curve with a large enough effect; inconclusive = small, poorly fitted or top-dose-only effect; inactive = no such curve, though single readings can be large or run the other way; tested in A549 cells; also: nearly all actives have a fitted effect of over 35% in size; inactives centre near -10
* marks the source's active call; other numbers are inactive results; i = inactive; ? = inconclusive; / = no result given; [ ] = remark or other dose. % is scaled to controls: 0 for no effect and ±100 for the full control effect; potency is read from the fitted curve at half-maximal effect.

SMILES | VACV Venus inh | VACV mCherry inh
O=C(CSC1CS(=O)(=O)c2cc([N+](=O)[O-])ccc21)NNC(=O)c1ccc(Cl)cc1 (configuration not stated) | 1.2% | -19.8%
CCOC(=O)CC1=C(C(=O)OCC)C2(C(=O)Nc3ccccc32)C(C#N)=C(N)O1 (configuration not stated) | 1.6% | 4.5%
COc1ccc(C(=O)c2ccc(N3CCN(C4CC(=O)NC4=O)CC3)cc2)cc1F (configuration not stated) | -19.6% | /
CN(C)c1ccc(NC(=O)c2cccc([N+](=O)[O-])c2)c2ccccc12 | -18.4% | -23.7%
CCn1cc(SCC(=O)NCC2CCCO2)c2ccccc21 (configuration not stated) | -3.1% | 8.4%
CC(C)CCNC(=O)NC(=O)COC(=O)/C=C/c1cnc2ccccc2n1 | -1.0% | /
COc1cc(C#Cc2ccc3cc(CCO)oc(=O)c3c2)cc(OC)c1 | -29.6% | -15.1%
CCc1nc2ccccc2n1CCCCOc1cccc(C)c1 | 6.6% | 4.0%
COCCNC(=O)[C@@H]1CCCN1C(=O)C1CCN(S(=O)(=O)c2ccc(C)cc2)CC1 | -11.6% | -19.6%
CSc1ccccc1NC(=O)c1cc(S(=O)(=O)N(C)C)ccc1N1CCCC1 | -10.9% | -11.4%
COc1cc(OC)cc(-c2c(Sc3ccccc3)c3cc(-c4ccc(OC)c(F)c4)ccc3n2C)c1 | -8.5% | -9.7%
CCOC(=O)CCNC(=O)CCc1nnc(CCCc2ccccc2)o1 | -14.1% | -18.6%
CCOC(=O)C1CCN(S(=O)(=O)c2ccc(N3CCCCS3(=O)=O)cc2)CC1 | 0.8% | 1.7%
COc1ccc(-c2nnc(SC(=O)N3c4ccccc4Sc4ccccc43)o2)cc1 | -12.5% | -9.6%
CCc1nnc(NC(=O)c2cccc(S(=O)(=O)N(C)c3ccc(OC)cc3)c2)s1 | -10.6% | -9.5%
CCCCNC(=O)C1(C)CCCCN1C(=O)c1sccc1C (configuration not stated) | 1.5% | -12.3%
COC(=O)c1ccccc1NC(=O)CCCS(=O)(=O)c1nc(-c2ccccc2OC)cc(C(F)(F)F)n1 | 0.4% | -2.2%
COc1ccc(C(C)=O)cc1COC(=O)c1ccc(C)c(S(=O)(=O)N2CCOCC2)c1 | -14.6% | -4.7%
C=CCC1(CC=C)CCCN1C(=O)CC1C(=O)NCCN1Cc1ccccc1OC (configuration not stated) | -6.7% | -19.5%
O=C(NNc1cccc(Cl)n1)c1c(F)cccc1F | -7.9% | -8.9%
COC(=O)[C@@]12CCCCN1[C@H](c1ccc(-c3cc(C(C)=O)cs3)c(OC)c1)[C@H]1C(=O)N(C)C(=O)[C@H]12 | -16.9% | i
COc1ccccc1CNC(=O)Cn1c(=O)oc2cc(Cl)ccc21 | -19.7% | -26.1%
C=CCn1c(SCC(=O)Nc2cccc3ccccc23)nc(O)c(CC)c1=O | -10.3% | -18.3%
CCOc1ccc(CC(=O)Nc2cc(=O)n(C)c(=O)n2C)cc1 | -4.9% | i
CCOc1cccc(CC(=O)NCc2ccc3c(c2)CCN3C(=O)c2cccc(C)c2)c1OCC | ? | ?
COc1ccccc1N1CCN(C(=O)c2ccc3ncsc3c2)CC1 | -20.1% | i
O=C(NCCC1=CCCCC1)c1coc(=O)c(Br)c1 | -12.2% | i
O=C(Cn1c(=O)n2nc(-c3cccc(F)c3)nc2c2ccccc21)N1CCN(c2ccc(F)cc2)CC1 | -2.3% | -8.7%
OC(CC1CC12c1ccccc1-c1ncccc12)(c1ccccc1)c1ccccc1 (configuration not stated) | -22.1% | i
CCNc1nc(Cl)nc(N(NC(C)=O)C(C)CC)n1 (configuration not stated) | -17.2% | -10.4%
COc1ccc(CNC(=O)CN2C(=O)NC3(CCCCCCC3)C2=O)cc1 | -17.6% | -4.9%
c1ccc(N2CCN(c3nc(-c4cccs4)nc4ccccc34)CC2)cc1 | -3.3% | ?
O=C(C[n+]1ccnc2ccccc21)c1ccc(Cl)cc1 | -2.5% | i
CCOC(=O)CSc1cc(C)nc2ccc(OC)cc12 | 7.6% | i
CC1CCCN(c2ccc(C(=O)OCC(=O)N3c4ccccc4Sc4ccccc43)cc2[N+](=O)[O-])C1 (configuration not stated) | 2.5% | -7.5%
Cc1c(O)ccc(C(=O)CN2CCN(Cc3ccc4c(c3)OCO4)CC2)c1O | -22.2% | -1.1%
CN1Cc2cccc3c2C(Cc2ccccc2S3)C1 (configuration not stated) | 1.6% | -15.7%
Cc1cccc(C(=O)Nc2ccc(NC(=O)Cc3ccc(Cl)cc3)cc2)c1 | 5.0% | i
O=C(NCc1cccnc1)C1CCN(S(=O)(=O)N2CCC3(CC2)OCCO3)CC1 | -3.6% | -7.4%
O=C(NCC(=O)N1CCN(C(=O)c2ccco2)CC1)c1ccc(Br)cc1 | 2.4% | 2.6%
CC1(C)CC(=O)C=C(NNC(=O)c2ccccc2)C1 | 1.7% | -2.5%
CC(=O)Nc1ccc2c(c1)nc1n2CCOC1 | -11.0% | -10.7%
Cc1nc2ccc(C(=O)NCc3ccc4c(c3)OCO4)cc2s1 | -20.0% | -7.0%
O=C(NCc1ccccc1)C12CC3CC(CC(Cl)(C3)C1)C2 | -10.6% | i
CCOc1ccc(CN(C)C(=O)CNC(=O)c2ccc(Br)o2)cc1OC | -7.8% | -3.5%
C[C@@H](c1ccccc1)N1C[C@@H](COCc2ccccc2)Oc2cc(N3CCC[C@H]3CO)ccc2S1(=O)=O | 0.7% | 8.3%
O=C(COC(=O)Cc1ccccc1)Nc1nnc(-c2ccccc2)o1 | -0.2% | -10.1%
O=C(CCC1CCCC1)NNC(=O)c1ccccc1O | -12.3% | -16.9%
CCN(CC)C(=O)C1CCCN(c2ccc([N+](=O)[O-])cc2/C=N/NC(=O)c2cccc(O)c2)C1 (configuration not stated) | -10.7% | -11.3%
COc1cc([N+](=O)[O-])ccc1NC(=O)CSc1nncn1-c1cccnc1 | -3.6% | -12.4%
Next records follow:
SMILES | VACV Venus inh | VACV mCherry inh
CC(C)c1c(C(=O)Nc2ccccc2)c(-c2ccccc2)c(-c2ccc(F)cc2)n1CC[C@@H](O)C[C@@H](O)CC(=O)O | -5.1% | -8.3%
COc1ccc(-n2c(O)c(/C=C3\C=Nc4ccc(Br)cc43)c(=O)[nH]c2=O)c(OC)c1 | -11.1% | -0.8%
COCCNC(=O)C(=O)Nc1ccc2nc3n(c(=O)c2c1)CCCCC3 | -1.9% | -1.7%
CC(=O)Nc1ccc2c(c1)C(=O)N(c1cccc3ccccc13)C2=O | -12.9% | -17.0%
Oc1ccccc1-c1nnco1 | -0.7% | -14.1%
COc1ccc(-n2c(=O)c3ccccc3n(Cc3ccccc3Cl)c2=O)cc1 | -2.9% | -5.5%
CCCn1c(SCC(=O)NNC(=O)c2ccc(C)cc2)nnc1C(C)C | -1.8% | -7.2%
O=C(CN1CCc2cc3c(cc2C1)OCCCO3)Nc1ccc(F)cc1 | -2.7% | -1.7%
COc1cccc2c(C)cc3nnc(SCC(=O)Nc4ccc(C)cc4)n3c12 | -19.0% | -20.4%
COCCNC(=O)CSc1nc(-c2ccccc2)[nH]c1-c1ccc(C)cc1 | -10.9% | -16.5%
CCOC(=O)N1CCC(NC(=S)Nc2ccc3nc(N4CCN(CC)CC4)cc(C)c3c2)CC1 | ? | ?
CC(=O)c1ccccc1NC(=O)CCNC(=O)c1ccco1 | 3.5% | 22.7%
S=c1[nH]c2ccccc2o1 | -11.2% | -10.9%
CC(=O)N1CCN(Cc2nc(C(c3ccccc3)c3ccccc3)no2)CC1 | -2.1% | -0.1%
Cc1ccc(OCCCC(=O)Nc2ccc(Br)cc2)cc1 | -4.4% | -13.5%
CN1CCn2cnc(C(=O)NCc3ccc(CNC(=O)OC(C)(C)C)cc3)c2C1=O | -5.4% | 49.9%[activator]
CN(C)c1ccc(C(C(=O)NCC2CCCO2)N(C(=O)c2snc(C(N)=O)c2N)c2ccccc2)cc1 (configuration not stated) | 5.5% | -11.3%
Cc1nc(-c2cccc(NC(=O)c3ccc(Cl)c(S(=O)(=O)N4CCCC4)c3)c2)cs1 | ? | ?
Cc1ccc(CCNC(=O)CN2CCN(Cc3ccccc3F)C2=O)cc1 | -9.8% | -14.0%
CC(C)C(c1nnnn1C1CCCCC1)N1CCCc2ccccc21 (configuration not stated) | -19.1% | -19.4%
CCOc1cc(C(=O)OCC(=O)Nc2ccc(F)cc2Cl)ccc1OCC(=O)N1CCOCC1 | -9.8% | -20.5%
CC(C)NC(=O)C1(C)CSCC(=O)N1Cc1cccs1 (configuration not stated) | 15.9% | -12.6%
COC(=O)c1c(-c2ccc(OC)c(OC)c2)csc1N | 2.7% | -2.2%
Cc1c(C)n(CCC#N)c2ccc(Cl)cc12 | -7.0% | i
CCN1C(=O)N(C)C2(c3ccccc3)N(C)C(=O)N(C)C12c1ccccc1 (configuration not stated) | -8.2% | /
OC(CNC1CCCCC1)c1ccccc1 (configuration not stated) | -8.1% | /
Cc1cc(=O)n2nc(N3CCC(C(=O)NCC(C)c4ccccc4)CC3)sc2n1 (configuration not stated) | -8.3% | -10.4%
Cn1cnc2ccc([N+](=O)[O-])cc2c1=O | -0.5% | -20.2%
C/C(=N\N1CCN(C)CC1)c1c(O)n(Cc2ccccc2)c(=O)[nH]c1=O | -8.3% | -15.3%
COc1ccccc1CNC(=O)CN(CCc1ccccc1)S(C)(=O)=O | -8.0% | -7.5%

A stretch from further up:
SMILES | VACV Venus inh | VACV mCherry inh
Cn1cnc2ccc([N+](=O)[O-])cc2c1=O | -0.5% | -20.2%
C/C(=N\N1CCN(C)CC1)c1c(O)n(Cc2ccccc2)c(=O)[nH]c1=O | -8.3% | -15.3%
COc1ccccc1CNC(=O)CN(CCc1ccccc1)S(C)(=O)=O | -8.0% | -7.5%

The list continues:
SMILES | VACV Venus inh | VACV mCherry inh
CC(C)N(C(=O)COc1ccc(Br)cc1Cl)C(C)C | -3.5% | -13.5%
CCOc1ccc(-n2nc(CO)c(C(=O)NCc3ccccn3)n2)cc1 | 2.5% | 1.3%
Cc1cc2n(n1)CCC(=O)N2Cc1ccc(C(=O)Nc2ccc(Br)c(C)c2)cc1 | -16.8% | -10.5%
c1ccc(Cn2ccc(-c3cnc(-c4ccccc4)s3)n2)cc1 | ? | /
COc1cc2[nH]c3c(N4CCN(c5ccccn5)CC4)ncnc3c2cc1OC | ? | ?
CCc1ccc(OCC(=O)NC(NC(=S)Nc2ccc(C)cc2C)C(Cl)(Cl)Cl)cc1 (configuration not stated) | ? | /
O=C(CNc1ccccc1C(=O)O)c1ccccc1 | -6.5% | -17.0%
COc1ccc(C(=O)OCC(=O)NC(=O)NC2CCCC2)cc1[N+](=O)[O-] | -8.6% | i

Some of these compounds in order of SMILES length, lowest first:
SMILES | VACV Venus inh | VACV mCherry inh
Oc1ccccc1-c1nnco1 | -0.7% | -14.1%
O=C(CNc1ccccc1C(=O)O)c1ccccc1 | -6.5% | -17.0%
CCOC(=O)CSc1cc(C)nc2ccc(OC)cc12 | 7.6% | i
CCn1cc(SCC(=O)NCC2CCCO2)c2ccccc21 (configuration not stated) | -3.1% | 8.4%
CC(C)NC(=O)C1(C)CSCC(=O)N1Cc1cccs1 (configuration not stated) | 15.9% | -12.6%
O=C(C[n+]1ccnc2ccccc21)c1ccc(Cl)cc1 | -2.5% | i
COc1ccccc1N1CCN(C(=O)c2ccc3ncsc3c2)CC1 | -20.1% | i
c1ccc(Cn2ccc(-c3cnc(-c4ccccc4)s3)n2)cc1 | ? | /
O=C(COC(=O)Cc1ccccc1)Nc1nnc(-c2ccccc2)o1 | -0.2% | -10.1%
COc1ccccc1CNC(=O)CN(CCc1ccccc1)S(C)(=O)=O | -8.0% | -7.5%
COc1cc(C#Cc2ccc3cc(CCO)oc(=O)c3c2)cc(OC)c1 | -29.6% | -15.1%
COCCNC(=O)C(=O)Nc1ccc2nc3n(c(=O)c2c1)CCCCC3 | -1.9% | -1.7%
COc1ccc(CNC(=O)CN2C(=O)NC3(CCCCCCC3)C2=O)cc1 | -17.6% | -4.9%
CC(=O)N1CCN(Cc2nc(C(c3ccccc3)c3ccccc3)no2)CC1 | -2.1% | -0.1%
COc1ccc(-n2c(=O)c3ccccc3n(Cc3ccccc3Cl)c2=O)cc1 | -2.9% | -5.5%
CN(C)c1ccc(NC(=O)c2cccc([N+](=O)[O-])c2)c2ccccc12 | -18.4% | -23.7%
O=C(NCc1cccnc1)C1CCN(S(=O)(=O)N2CCC3(CC2)OCCO3)CC1 | -3.6% | -7.4%
COc1ccc(C(=O)c2ccc(N3CCN(C4CC(=O)NC4=O)CC3)cc2)cc1F (configuration not stated) | -19.6% | /
Cc1cc2n(n1)CCC(=O)N2Cc1ccc(C(=O)Nc2ccc(Br)c(C)c2)cc1 | -16.8% | -10.5%
CCOc1cccc(CC(=O)NCc2ccc3c(c2)CCN3C(=O)c2cccc(C)c2)c1OCC | ? | ?
Cc1nc(-c2cccc(NC(=O)c3ccc(Cl)c(S(=O)(=O)N4CCCC4)c3)c2)cs1 | ? | ?
COc1cc(OC)cc(-c2c(Sc3ccccc3)c3cc(-c4ccc(OC)c(F)c4)ccc3n2C)c1 | -8.5% | -9.7%
COc1ccc(-n2c(O)c(/C=C3\C=Nc4ccc(Br)cc43)c(=O)[nH]c2=O)c(OC)c1 | -11.1% | -0.8%
CN(C)c1ccc(C(C(=O)NCC2CCCO2)N(C(=O)c2snc(C(N)=O)c2N)c2ccccc2)cc1 (configuration not stated) | 5.5% | -11.3%
CC(C)c1c(C(=O)Nc2ccccc2)c(-c2ccccc2)c(-c2ccc(F)cc2)n1CC[C@@H](O)C[C@@H](O)CC(=O)O | -5.1% | -8.3%
